NPR2 activator – human GC-B receptor activators, primary screen, HEK293 GC-B cells, cGMP TR-FRET, EC30 CNP. hit rate 0.11% among 370,000. 0% at EC30 CNP, 100% saturating CNP. activation, % at 10 µM. Atrial natriuretic peptide receptor 2 (Homo sapiens), P20594;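 active = activation at 10 µM reaching about 35% in either raw or pattern-adjusted values, limit read from the data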
SMARCA2 activ – SMARCA2 (BRM) function activators, primary screen, cell-based, luminescence, high throughput | activation, % at 9.1 µM | hit rate 1% among 370,000 | MG213 cells, MMTV-luciferase reporter, dexamethasone, overnight; in the data active = activation above about 7.8%;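 also: 0% = vehicle wells and 100% = reference activator wells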
HGIII-sPLA2 inh – human group III sPLA2 inhibitors, primary screen, biochemical, QFRET, BODIPY PC-A2 liposome substrate | Group 3 secretory phospholipase A2 (Homo sapiens), Q9NZ20 | QFRET BODIPY PC-A2 liposome hydrolysis, fluorescence | AID 743126, 2013 | inhibition, % at 12.2 µM | hit rate 0.56% among 370,000;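 active = inhibition above mean plus 3 SD of compounds lying within the high and low control bounds, cut at about 19% in these data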;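 also: 0% = median of test compound wells and 100% = no enzyme DMSO wells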
Target sequence (Q9NZ20 whole entry, looked up): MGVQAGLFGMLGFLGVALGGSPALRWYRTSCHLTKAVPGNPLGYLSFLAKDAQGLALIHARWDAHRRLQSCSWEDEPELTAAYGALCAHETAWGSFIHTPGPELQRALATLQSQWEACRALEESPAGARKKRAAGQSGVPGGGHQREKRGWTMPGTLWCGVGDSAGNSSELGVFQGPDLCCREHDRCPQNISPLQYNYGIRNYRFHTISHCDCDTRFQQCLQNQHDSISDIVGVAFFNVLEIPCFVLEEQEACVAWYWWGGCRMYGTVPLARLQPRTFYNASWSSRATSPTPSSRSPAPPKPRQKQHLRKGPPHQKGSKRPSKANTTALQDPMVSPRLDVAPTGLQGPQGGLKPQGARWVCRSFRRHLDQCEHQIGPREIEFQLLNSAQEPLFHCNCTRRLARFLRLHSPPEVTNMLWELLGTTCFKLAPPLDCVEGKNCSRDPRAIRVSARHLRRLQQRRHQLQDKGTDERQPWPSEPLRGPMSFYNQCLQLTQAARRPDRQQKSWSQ
GC-A act – GC-A stimulated cGMP production enhancers – HEK293 GC-A cells, cGMP TR-FRET, EC30 ANP, primary screen. Atrial natriuretic peptide receptor 1 (Homo sapiens), P16066. 0% at EC30 ANP, 100% saturating ANP. activation, % at 10 µM. hit rate 0.14% among 370,000. AID 1671463, 2021; in the data active = activation above about 40%
GAA850 FXN act – FXN promoter activators, primary screen, cell-based, luciferase luminescence, HEK293 lucGAA850 | hit rate 0.56% among 360,000 | AID 540364, 2011 | activation, % at 6 µM | HEK293 lucGAA850 FXN promoter luciferase reporter, 24 h; percent of 10 µM SAHA response;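 active = activation above the average of all compounds screened plus 3 SD, cutoff fixed separately per campaign, cut at about 7.5% in these data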;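 also: 0% = DMSO wells and 100% = 10 µM SAHA wells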
ADAM10 inh – human ADAM10 inhibitors, primary screen, biochemical, QFRET, HTS; Disintegrin and metalloproteinase domain-containing protein 10 (Homo sapiens), O14672; recombinant ADAM10, EDANS/DABCYL FRET peptide cleavage, 3 h; inhibition, % at 7 µM; hit rate 0.62% among 370,000; AID 720582, 2013;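 active = inhibition above a per-campaign cutoff equal to the mean of compounds falling between control-based bounds plus 3 SD, cut at about 20% in these data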;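 also: 0% = DMSO wells while the 100% control is not disclosed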
Numbers without * were called inactive; i = inactive; & = joins results of further samples; ! = not confirmed by another sample.

SMILES | NPR2 activator | SMARCA2 activ | HGIII-sPLA2 inh | GC-A act | GAA850 FXN act | ADAM10 inh
CC(C)[N+]1(C)[C@@H]2CC[C@H]1CC(OC(=O)C(CO)c1ccccc1)C2 (stereo partly specified) | 1&-6 | -8&-4 | 14&2 | 5&-2 | 0.4&-3.3&1.3 | -3&8
CCn1cc(C(=O)O)c(=O)c2cc(F)c(N3CCN(C)CC3)cc21 | -8 | 0 | 2 | -1 | -2.1 | -118
COc1cccc(Nc2nc(NCC3CCCO3)c3ccccc3n2)c1 (stereo unspecified) | -1 | -6 | -14 | 16 | -2.1 | -16
O=C(COc1ccc(Cl)cc1Cl)Nc1ccccc1F | 3 | 1 | -1 | -3 | 2.9 | 6
CC(C)Nc1nc(NCc2ccccc2)c2sccc2n1 | 7 | -8 | -4 | 12 | 0.1 | -28
COC(=O)c1sccc1NC(=O)Nc1ccc(C)c(C)c1 | -3 | 4 | -2 | -1 | 2.4 | 6
O=C(Cn1c(C(=O)c2ccccc2)nc2ccccc21)c1ccc(Cl)cc1 | -3 | -1 | -5 | -2 | -4.9 | 0
C#Cc1cccc(N2C(=O)C3C4C=CC(C3C2=O)C2C(=O)N(c3cccc(C#C)c3)C(=O)C42)c1 (stereo unspecified) | 0 | -5 | -4 | 4 | 2.5 | -20
COc1ccc(-c2cn3ccccc3n2)cc1 | -7 | 4 | 4 | 1 | 1.8 | -238
COc1ccc(-c2cc3cc4c(cc3cn2)OCO4)cc1 | -6 | 2 | -6 | 3 | 0.7 | -37

Molecules shown so far that have a halogen:
SMILES | NPR2 activator | SMARCA2 activ | HGIII-sPLA2 inh | GC-A act | GAA850 FXN act | ADAM10 inh
CCn1cc(C(=O)O)c(=O)c2cc(F)c(N3CCN(C)CC3)cc21 | -8 | 0 | 2 | -1 | -2.1 | -118
O=C(COc1ccc(Cl)cc1Cl)Nc1ccccc1F | 3 | 1 | -1 | -3 | 2.9 | 6
O=C(Cn1c(C(=O)c2ccccc2)nc2ccccc21)c1ccc(Cl)cc1 | -3 | -1 | -5 | -2 | -4.9 | 0

Next part.
SMILES | NPR2 activator | SMARCA2 activ | HGIII-sPLA2 inh | GC-A act | GAA850 FXN act | ADAM10 inh
O=C(Nc1ccccn1)C(=O)Nc1ccccn1 | 4 | 11* | -2 | -3 | 5.9 | 2
O=C(NC1CCC(Oc2ccc(C(=O)O)cc2)CC1)NC12CC3CC(CC(C3)C1)C2 (stereo unspecified) | 4 | -1 | 2 | 0 | 0.1 | 1
Cc1cc(C)n2nc(-c3ccccc3)cc2n1 | 1 | 3 | 1 | -7 | 4.5 | -44
O=C(NCC1CCCCN1)c1cc(OCC(F)(F)F)ccc1OCC(F)(F)F (stereo unspecified) | 4 | -1 | 2 | 4 | -0.2 | -7
Oc1csc(Cc2nc(-c3ccccc3F)cs2)n1 | -3 | 10* | 2 | -5 | 3.5 | -6
O=C(COc1ccccc1)Nc1cccc(-c2nc3cc4ccccc4cc3[nH]2)c1 | 2 | 2 | -28 | 2 | -1.3 | i
O=C1CN(/N=C/c2ccc([N+](=O)[O-])o2)C(=O)N1 | -2 | -7 | 5 | 0 | 3.0 | -35
O=S(=O)(Nc1nnc(-c2ccccc2)s1)c1ccc(Cl)cc1 | 3 | -1 | -102 | 0 | -0.3 | -1
CCN(CC)C(=S)SSC(=S)N(CC)CC | 20 | 9.2* | -2 | 16 | 20* | -3
Cc1cnc(C(=O)NCCc2ccc(S(=O)(=O)NC(=O)NC3CCCCC3)cc2)cn1 | -1 | 3 | 0 | 2 | 0.1 | -1

Entries above that bear a hit mark in GAA850 FXN act.
SMILES | NPR2 activator | SMARCA2 activ | HGIII-sPLA2 inh | GC-A act | GAA850 FXN act | ADAM10 inh
CCN(CC)C(=S)SSC(=S)N(CC)CC | 20 | 9.2* | -2 | 16 | 20* | -3

Following part.
SMILES | NPR2 activator | SMARCA2 activ | HGIII-sPLA2 inh | GC-A act | GAA850 FXN act | ADAM10 inh
Clc1ccc(-c2cn3cc(Br)ccc3n2)cc1Cl | -3 | 2 | 14 | 1 | 8.2* | 2
CCC(=C(c1ccc(O)cc1)c1ccc(OCCN(C)C)cc1)c1ccccc1 | -2 | -3 | -1 | 3 | 1.0 | -6
Cc1c(C(=O)Nc2ccccc2[N+](=O)[O-])csc1-c1ccccc1 | -4 | 2 | -2 | -3 | 4.0 | 6
CC(C)n1c(/C=C/[C@@H](O)C[C@@H](O)CC(=O)O)c(-c2ccc(F)cc2)c2ccccc21 | 2 | 12* | -16 | 2 | -2.4 | -62
CCCNCC(O)COc1ccccc1C(=O)CCc1ccccc1 (stereo unspecified) | -6 | 4 | -4 | 1 | -1.1 | -6
O=[N+]([O-])c1cccc(-c2nc(-c3ccccn3)no2)c1 | 5 | 5 | 0 | 0 | 4.8 | 1
Fc1ccc2cnc(-c3ccccc3)cc2c1 | -5 | 2 | 10 | 2 | 4.7 | -18
CC(N)C(=O)NC(CO)C(O)C(N)C=O (stereo unspecified) | 0 | -6 | -2 | -2 | -4.4 | -5
CC(=O)[C@H]1CC[C@H]2[C@@H]3CCC4=CC(=O)CC[C@]4(C)[C@H]3CC[C@]12C | -11&7 | -9&-5 | -6&-10 | -1&5 | 2.6&3.3 | 21*!
CCN1CCN(C(=O)N[C@@H](C(=O)N[C@@H]2C(=O)N3C(C(=O)O)=C(CSc4nnnn4C)CS[C@H]23)c2ccc(O)cc2)C(=O)C1=O | 1 | -2 | 9 | 4 | -0.7 | -7
CC1CC2C3CCC4=CC(=O)C=CC4(C)C3(F)C(O)CC2(C)C1(O)C(=O)CO (stereo unspecified) | -2 | 1 | -2 | 3 | 4.5 | 2
CN(C)C(=O)C(CCN1CCC(O)(c2ccc(Cl)cc2)CC1)(c1ccccc1)c1ccccc1 | -15 | -3 | -19 | -24 | -13 | 16
O=C(Nc1ccccn1)Nc1ccccc1[N+](=O)[O-] | -2 | 4 | -3 | 2 | 2.4 | 5
Fc1ccc(-c2cn3ccccc3n2)cc1 | 0 | 4 | 8 | 5 | 2.8 | -113
CC(C)NC[C@H](O)COc1cccc2[nH]ccc12 | 5 | 1 | -2 | 1 | 1.5 | -8
Cc1ccc2cc(C)c3nnc(SCC(=O)N4CCN(C(=O)c5ccco5)CC4)n3c2c1 | -7 | 0 | 1 | -18 | -2.7 | -4
COc1cc2nc(N3CCN(C(=O)c4ccco4)CC3)nc(N)c2cc1OC | -5 | -2 | 2 | 4 | -1.3 | i
C=C(CN(C)C)C(=O)c1ccc2c(c1)OCO2 | -14 | -9 | 7 | -22 | -15 | -6
CSc1ccccc1-c1nc(-c2ccncc2)no1 | -4 | 4 | -1 | 25 | 5.6 | -4
NCCN1C(=O)c2ccccc2C1(O)c1ccc(Cl)cc1 (stereo unspecified) | -16 | -1 | 3 | -13 | -2.1 | -6

As entered above:
HGIII-sPLA2 inh with `C=C(CN(C)C)C(=O)c1ccc2c(c1)OCO2` → 7
SMARCA2 activ with `COc1cc2nc(N3CCN(C(=O)c4ccco4)CC3)nc(N)c2cc1OC` → -2
GAA850 FXN act with `Cc1ccc2cc(C)c3nnc(SCC(=O)N4CCN(C(=O)c5ccco5)CC4)n3c2c1` → -2.7
HGIII-sPLA2 inh with `CC1CC2C3CCC4=CC(=O)C=CC4(C)C3(F)C(O)CC2(C)C1(O)C(=O)CO` (stereo unspecified) → -2

Some of the compounds tested. The share of hits here may be higher or lower than overall.
